# High-throughput results: PubChem, several laboratories
# rRNA inh HTS = selective bacterial rRNA inhibition in E. coli | GFP signal change (wild-type ribosome), % (test concentration not listed) | E. coli WT GFP vs humanized-ribosome RFP mutants, fluorescence, 24 h; stronger effect = lower value; DMSO median 0, no signal -100 | actives 1.6% (n = 350,000);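 active = significant combined selectivity score with lowered wild-type GFP, culture density cut under 30%, mutant RFP and density less affected; inactive = any of these conditions unmet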; note: one replicate is shown; some compounds called inactive have numbers as strong as hits
# AF4-AF9 inh = inhibitors of human MLL-AF4/AF9 interaction; P42568; AlphaScreen, biotin-AF4 peptide binding to FLAG-AF9; inhibition, % at 10 µM; actives 0.47% (n = 350,000); AID 651704;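 active = every replicate reaching a set inhibition limit, whatever the replicate mean, cut at about 25% in these data; inconclusive = mean inhibition reaches that limit but some replicates miss it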;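 note: 0% = plate neutral control median and 100% = total signal loss; the record names both 10 and 1 µM as test concentration; the first replicate is given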
# Target sequence (P42568 whole entry, looked up): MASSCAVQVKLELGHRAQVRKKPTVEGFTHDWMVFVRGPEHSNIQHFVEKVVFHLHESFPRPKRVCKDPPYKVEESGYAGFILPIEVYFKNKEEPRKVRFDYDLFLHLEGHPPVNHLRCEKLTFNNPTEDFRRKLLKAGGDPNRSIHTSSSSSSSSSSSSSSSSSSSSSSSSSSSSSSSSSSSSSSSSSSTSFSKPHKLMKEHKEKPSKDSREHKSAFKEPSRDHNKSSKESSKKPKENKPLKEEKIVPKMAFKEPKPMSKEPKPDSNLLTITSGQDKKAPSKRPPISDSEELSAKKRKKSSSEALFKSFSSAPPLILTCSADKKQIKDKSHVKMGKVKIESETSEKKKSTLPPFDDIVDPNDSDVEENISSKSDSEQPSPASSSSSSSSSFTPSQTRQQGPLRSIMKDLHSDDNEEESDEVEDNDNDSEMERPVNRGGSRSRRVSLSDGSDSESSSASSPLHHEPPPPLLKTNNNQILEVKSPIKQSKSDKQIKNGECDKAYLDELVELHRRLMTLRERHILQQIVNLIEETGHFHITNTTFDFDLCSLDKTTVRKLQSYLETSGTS
# Vif TR-FRET = HIV-1 Vif–A3G interaction blockers – biochemical, TR-FRET, GST-Vif 1-94, biotin-A3G peptide, dose response retest, primary screen (AID 1117319). TR-FRET GST-Vif / biotin-A3G peptide binding; higher % means a stronger effect; test concentration not given here; strong numbers were not always called active. inhibition, %, or IC50 in µM where a hit was titrated. actives 0.57% (n = 260,000);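 active = above the screen mean plus three standard deviations and confirmed in dose response; inconclusive = results disagree or hit not tested in dose response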;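 note: Vif residues 1-94 fused to GST binding biotinylated APOBEC3G peptide 110-148; 0% = full assay without inhibitor and 100% = GST in place of GST-Vif; retest series ran down from 100 µM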
# Calb FLC = affects C. albicans growth with fluconazole; C. albicans CaCi-2 (fluconazole-resistant clinical isolate) + fluconazole, Alamar Blue growth, 48 h; growth inhibition, % (concentration not given with the values); actives 0.57% (n = 300,000); AID 1979;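 active = most replicates above 75%; inconclusive = exactly half above 75%; inactive = most below 75%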;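 note: all wells also contain fluconazole at 8 µg/ml as a sub-toxic cotreatment; 0% = median of DMSO wells and 100% = median of geldanamycin control wells; wells of about 8 µL received 7.5 nL stock; the first replicate is given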
# RanGTP-Imp inh = inhibitors of RanGTP-importin-beta interaction, primary screen, biochemical, FRET, CFP-Ran, YFP-importin-beta, homogeneous; inhibition, % (no concentration beside the values); cell-free CFP-Ran/YFP-importin-beta FRET ratio; actives 1.1% (n = 300,000);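 active = most replicates above 15%; inconclusive = exactly half above 15%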;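 note: 0% = DMSO wells and 100% = Ran loaded with GDP instead of GTP; wells of about 40 µL received 100 nL stock; the first replicate is given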
# Bfl-1 A1 inh = inhibitors of the anti-apoptotic protein A1, read as caspase activation; AID 2462; caspase activation, % (test concentration not listed); MEF A1-2A-BIM cells, Caspase-Glo 3/7 luminescence, 3 h; percent of clofoctol response, vehicle zero; actives 0.066% (n = 330,000);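 active = over half of replicate activation scores above 10%, or exactly half above 10 with the replicate mean above 10; inconclusive = replicate mean below 10 yet half the replicates above 10; inactive = over half of replicates below 10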;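 note: wells of about 30 µL received 50 nL stock; many hits fall short of the cut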
# T cruzi inh = blocks replication of Trypanosoma cruzi; T. cruzi beta-gal in NIH3T3, luminescence, 90 h; inhibition, % (concentration not given with the values); actives 1.4% (n = 300,000);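 active = mean inhibition across valid replicates above about 55%, limit read from the data; inconclusive = mean below that limit but half or more replicates reach it; inactive = mean below it, under half of replicates reach it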;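 note: signal also drops with host cell toxicity which is not excluded here; 0% = plate median of DMSO wells and 100% = zero luminescence signal; higher percent means less beta-gal luminescence so fewer parasites; stock transfer was 50 nL into about 50 µL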
# Beta apoptosis = beta cell apoptosis inhibition | protection from apoptosis, % (concentration not given with the values) | actives 0.8% (n = 300,000) | INS-1E cytokine-induced death, ATP luminescence, 48 h; percent of positive-control rescue, neutral wells zero;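 active = all replicates at 75% or more, or half of them and the mean; inconclusive = half reach 75% but not the mean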;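 note: 0% = cytokine-treated negative control wells and 100% = positive control rescue; higher means more ATP so stronger rescue from cytokine killing; wells of about 40 µL received 100 nL stock; the first replicate is given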
# rRNA inh HTS OD600 = further read-out of rRNA inh HTS, marked with its call; OD600 change, %; measured here: OD600 growth;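 optical density of the mix in the first replicate; 0 = DMSO median and -100 = no signal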
# rRNA inh HTS RFP = recorded beside rRNA inh HTS, whose call it bears; RFP signal change, %; measured here: RFP humanized mutant strains;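 first replicate; 0 = DMSO median and -100 = no signal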
# Active calls of the source: *; ? = inconclusive; nt = not tested or not shown. The list is partial; count on the stated rates, not on these rows.
SMILES,rRNA inh HTS,rRNA inh HTS OD600,rRNA inh HTS RFP,AF4-AF9 inh,Vif TR-FRET,Calb FLC,RanGTP-Imp inh,Bfl-1 A1 inh,T cruzi inh,Beta apoptosis
O=C(CCCN1C(=O)CCC1=O)Nc1ccc(Cl)c(C(F)(F)F)c1,nt,nt,nt,nt,27%,-3,6.1,1.7,-6,nt
CC(C)n1cnc2cc(NCc3nc4ccccc4n3C)ccc21,nt,nt,nt,nt,nt,-3,5.2,-8.6,-15,nt
CC(C)Oc1cccc(C(=O)C2CCCN(C(=O)c3ccsc3)C2)c1 (stereo unspecified),7,7,0.6,-1.7,-4%,5,0.0,0.7,6,-2
CCOc1cc(NC(=O)CCl)c(OCC)cc1NC(C)=O,9,7,13,-1.2,6%,?,4.4,0.8,-7,10
COc1ccccc1NC(=O)Nc1nc(CC(=O)N2CCN(c3ccccc3F)CC2)cs1,-3,-13,10,0.9,-2%,-9,1.0,-1.9,22,-1
Cc1ccc(-n2nnnc2-c2cnoc2-c2cccc(F)c2)cc1,nt,nt,nt,nt,nt,5,-1.9,0.4,-2,-3
Cc1nn(C)c(C(=O)Nc2ccc(Br)cc2F)c1Br,nt,nt,nt,nt,26%,-4,-0.3,-0.7,-11,5
CCN(CC)C(=O)CSc1nc2cc(S(=O)(=O)N3CCOCC3)ccc2n1CC,1,-3,-1.4,0.6,nt,-18,3.9,0.5,9,-6
CCOC(=O)c1c(C)[nH]c(C(=O)OCC(=O)Nc2ccc(OC)c(Cl)c2)c1C,nt,nt,nt,nt,0%,-1,?,0.7,4,8
CS(=O)(=O)Nc1nnc(SCC(=O)Nc2cccc([N+](=O)[O-])c2)s1,8,18,0.7,-1.0,nt,4,2.5,-0.4,-21,-8
O=C(NCc1nnc(SCC(=O)N2CCN(c3ccccc3)CC2)o1)c1ccccc1,-1,3,0.5,-0.4,nt,-3,-0.5,1.4,-12,-6
COc1ccc(N(C)S(=O)(=O)c2cccc(C(=O)Nc3ccc4c(c3)OCCO4)c2)cc1,-19,-5,17,-0.6,7%,-2,-2.7,0.0,9,-7
Cc1ccc(S(=O)(=O)NC(Cc2c[nH]c3ccccc23)C(=O)O)cc1 (stereo unspecified),nt,nt,nt,nt,nt,-13,4.5,-2.3,-15,-2
O=C(CCSCc1ccc(Cl)cc1)NCCc1ccccc1,3,-3,3.1,-0.1,5%,6,-1.4,-0.2,-1,3
CCOC(=O)c1cccc(NS(=O)(=O)c2c(C)[nH]c(=O)[nH]c2=O)c1,nt,nt,nt,nt,-3%,19,?,-1.0,10,-6
CC(c1nc2ccccc2o1)N1C(=O)c2ccccc2C1=O (stereo unspecified),nt,nt,nt,nt,16%,31,-3.7,0.3,-6,-5
O=C(c1ccccc1Cc1ccccc1)N1CCN(S(=O)(=O)c2ccccc2F)CC1,-37,-41,-5.9,2.6,6%,nt,nt,0.2,nt,1
Cc1cccc(N2CN=C3SCC(=O)N3C2)c1,nt,nt,nt,0.9,4%,-8,-0.5,1.0,7,3
Cc1cc(C)c2c(=O)n(CC(=O)N3CCC(Cc4ccccc4)CC3)sc2n1,nt,nt,nt,nt,3%,-1,-4.2,nt,33,nt
COc1cccc(CN2CCN(c3cccc(C(F)(F)F)c3)CC2)c1OC,nt,nt,nt,nt,1%,12,1.0,0.2,-9,-4
Cc1ccc(/C=N/NC(=O)c2nc3nc(C)cc(C)n3n2)cc1,nt,nt,nt,0.5,1%,2,6.9,-0.4,-10,-2
COCCN(C(=S)Nc1ccc(OC)cc1)C1CCN(C(C)C)CC1,nt,nt,nt,nt,2%,-8,2.2,2.6,-5,-3
O=C(NC(NCc1ccccc1)C(Cl)(Cl)Cl)c1cccnc1 (stereo unspecified),nt,nt,nt,nt,-5%,-7,4.0,-0.2,-12,nt
CCOc1ccc(CCNC(=O)c2cccc(NC3=NC4CS(=O)(=O)CC4S3)c2)cc1OCC (stereo unspecified),4,9,-0.9,9.9,nt,2,-1.9,1.0,-6,3
COc1ccc(C)cc1NC(=O)C(Sc1nnc2ccccn12)c1ccccc1 (stereo unspecified),nt,nt,nt,nt,16%,4,1.9,0.4,-11,2
O=C(CSc1nncs1)NCc1ccc(F)cc1,8,5,-5.9,0.2,-7%,7,-0.9,1.1,7,-8
O=C(Nc1ccc(F)cc1F)c1cccc(S(=O)(=O)N2CCCCC2)c1,9,10,3.4,-0.2,-12%,nt,nt,-0.1,nt,-1
O=C(O)CCn1c(=S)oc2ccccc21,nt,nt,nt,nt,0%,4,5.3,0.4,-16,-1
CC(=O)NC(=S)Nc1ccc(-c2nc3ccc(C)cc3s2)cc1,7,-8,5.4,3.3,-1%,-3,0.1,-0.5,9,16
O=C(NCCCN1CCOCC1)c1ccc(/C=C2\Oc3ccccc3N(Cc3ccccc3F)C2=O)cc1,-2,4,-1.4,-1.8,nt,-20,3.6,0.7,14,-3
CC1CC(C)CN(C(=O)CNC(=O)c2sc3ccccc3c2Cl)C1 (stereo unspecified),nt,nt,nt,-8.0,-3%,nt,nt,0.6,nt,-5
Cc1cc(C)c(NC(=O)COC(=O)Cc2ccsc2)c(C)c1,nt,nt,nt,nt,-5%,-10,1.4,-0.1,1,-8
O=C(NCc1ccco1)C1CCCN(c2nnc(-n3cccc3)s2)C1 (stereo unspecified),5,3,-1.0,1.2,10%,-30,3.2,1.5,-13,-5
O=C(NCc1cccs1)N[C@@H](Cc1ccccc1)C(=O)O,4,2,1.9,5.4,-5%,7,2.9,0.6,-20,-6
COc1ccccc1C(=O)Nc1nc(C)cc(C)n1,28,2,1.4,-1.6,nt,-6,6.3,0.2,-2,nt
CCC(=O)c1ccc(OCC(O)Cn2nc(C)c(Br)c2C)cc1 (stereo unspecified),-18,-32,-0.5,-2.2,nt,4,-4.4,1.0,11,5
Cc1nc(SCC(=O)NNC(=O)c2ccc(F)cc2)c2ccccc2n1,13,7,0.5,-2.4,nt,nt,nt,0.8,nt,1
Cc1cccc(NC(=O)c2nc[nH]c2C(=O)NC2CCN(C(=O)OC(C)(C)C)CC2)c1,12,16,1.5,5.4,nt,nt,nt,-0.8,nt,3
COc1ccc(Cc2nnc(NS(C)(=O)=O)s2)cc1,4,0,2.6,-6.1,?,-10,2.2,0.6,-23,-6
O=C(COC(=O)C1CC1)c1c[nH]c2ccccc12,nt,nt,nt,nt,2%,25,?,-3.2,-21,3
O=C(NC(=S)Nc1nc(-c2ccccc2)cs1)c1cccnc1,nt,nt,nt,0.5,0%,-4,0.5,0.2,45,3
O=C(CSCc1ccco1)c1ccc(Cl)s1,nt,nt,nt,nt,28%,-3,0.7,-0.2,-9,-19
CC(=O)Nc1ccccc1OCc1nnc(-c2cccs2)o1,nt,nt,nt,nt,-1%,nt,2.4,1.4,15,5
CCN(CC)CC(C)OC(=O)c1ccccc1Cl (stereo unspecified),0,6,-3.3,0.4,5%,-3,0.4,0.0,-13,0
CCOC(=O)C1CCN(C(=O)COC(=O)/C=C/c2ccccc2)CC1,-5,-1,-0.6,-1.9,nt,nt,nt,-1.8,nt,-3
O=C(c1cc(-c2cccs2)on1)N1CCCc2ccccc21,-35,-54,2.8,-3.2,-2%,-2,0.1,nt,11,nt
c1ccc(C[C@H]2CN=C(Nc3ccccc3)N2CCCC2CCCCC2)cc1,-19,-24,13,6.1,nt,nt,nt,0.7,nt,-8
O=C(C1CCCN(c2ncnc3c2nc2n3CCCCC2)C1)N1CCN(c2ccc(Cl)cc2)CC1 (stereo unspecified),-4,-35,-3.9,1.7,nt,41,4.0,-2.4,32,10
O=C(CCN1CCCCC1)NCNC(=O)CCN1CCCCC1,nt,nt,nt,nt,-2%,-5,-0.8,0.5,1,-6
CCN(CC)S(=O)(=O)c1cc(NC(=O)C2CCN(c3ncnc4sc(C)c(C)c34)CC2)ccc1Cl,-1,-5,3.8,-39,0%,6,0.4,2.4,52,19
COc1ccc2[nH]c(=O)c(CNc3ccc(C)c(C)c3)cc2c1,nt,nt,nt,nt,27%,2,-24,0.7,-21,-14
CC(C)=CCCC(C)NC(=O)NC1CCCCC1 (stereo unspecified),nt,nt,nt,nt,8%,-11,0.2,0.2,6,5
Cc1csc(N)n1,-3,4,-2.6,-10,-1%,2,2.1,1.1,-18,-1
Cc1cnc(NC(=O)CSc2nnc(C)s2)s1,nt,nt,nt,nt,-1%,-9,0.2,-0.6,-6,2
COC(=O)Cc1ccc(N(Cc2ccccc2F)S(=O)(=O)c2ccc(Br)cc2)cc1,9,13,-1.9,0.8,-10%,-6,-1.7,-0.6,9,4
O=C(C1CC(=O)N(c2ccc(Cl)cc2)C1)N1CCC(c2nc3ccccc3[nH]2)CC1 (stereo unspecified),-14,-18,4.0,1.6,-8%,-6,1.0,-0.9,2,-4
Cn1cnc([N+](=O)[O-])c1S(=O)(=O)c1ccc(Cl)cc1,-7,-6,4.6,-6.4,21%,5,2.6,nt,36,nt
CC1CN(C(=O)COC(=O)c2ccc(O)cc2)CC(C)O1 (stereo unspecified),2,10,-2.4,3.3,1%,6,-1.0,1.2,-11,nt
CN=C(Nc1ccccc1OC)SC1CC(=O)N(c2ccc(C(=O)OC)cc2)C1=O (stereo unspecified),nt,nt,nt,nt,8%,-15,-0.3,-0.2,2,-10
Cc1onc(-c2ccccc2)c1C(=O)Nc1sc2c(c1C#N)CCC2,nt,nt,nt,nt,28%,8,46*,nt,-8,nt

# Going on with the list:
SMILES,rRNA inh HTS,rRNA inh HTS OD600,rRNA inh HTS RFP,AF4-AF9 inh,Vif TR-FRET,Calb FLC,RanGTP-Imp inh,Bfl-1 A1 inh,T cruzi inh,Beta apoptosis
COc1cc(C(=O)Nc2nc(C)c(Cc3ccc4c(c3)OCO4)s2)cc(OC)c1OC,nt,nt,nt,nt,-37%,6,0.4,-0.1,6,43
CN(C)S(=O)(=O)c1ccc(NC(=O)Cc2ccc(S(=O)(=O)N3CCOCC3)s2)cc1,-7,0,1.4,0.6,nt,-9,-0.7,2.5,-10,-9
COCCNC(=S)Nc1ccc(Cl)c(Cl)c1,5,3,-1.8,-0.2,0%,3,-5.3,1.4,-13,2
COc1ccc(C(C[N+](=O)[O-])c2c(C)cc3ccccn23)cc1 (stereo unspecified),14,13,4.4,6.4,3%,8,2.5,0.4,14,2
CCOC(=O)c1ccc(Nc2nnc(C(C)(C)C)c(=O)[nH]2)cc1,nt,nt,nt,nt,3%,3,1.7,0.2,16,21
CC1CCc2sc(C(=O)N3CCC(C(N)=O)CC3)cc2C1 (stereo unspecified),nt,nt,nt,-1.8,9%,nt,nt,-2.5,nt,6
Cc1cc(NC(=O)COC(=O)C2CSC3(C)CCC(=O)N23)ccc1Br (stereo unspecified),-7,-8,1.3,-2.5,nt,nt,nt,0.2,nt,-20
O=C(Cn1[nH]c(=O)c2ccccc2c1=O)OCC(=O)N(Cc1ccccc1)Cc1ccccc1,nt,nt,nt,nt,63%,24,-0.1,0.2,-1,-3
O=c1[nH]c(CS(=O)(=O)c2ccccc2)nc2ccccc12,nt,nt,nt,nt,nt,4,1.7,0.6,2,-1
CNc1ccc2nnc(C(F)(F)C(F)(F)C(F)(F)F)n2n1,11,3,-1.1,-2.1,1%,23,-2.6,2.1,-6,-5
